# Compound activity: PubChem, Broad Institute
# AF4-AF9 inh = MLL-AF4/AF9 protein interaction inhibition; P42568; inhibition, % at 10 µM; AID 651704; 350,000 compounds, 0.47% hits; AlphaScreen, biotin-AF4 peptide binding to FLAG-AF9;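 active means every replicate reaching a set inhibition limit, whatever the replicate mean, cut at about 25% in these data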;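 further: 0% = plate neutral control median and 100% = total signal loss; the record names both 10 and 1 µM as test concentration; the first replicate is given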
# Target sequence (P42568 whole entry, looked up): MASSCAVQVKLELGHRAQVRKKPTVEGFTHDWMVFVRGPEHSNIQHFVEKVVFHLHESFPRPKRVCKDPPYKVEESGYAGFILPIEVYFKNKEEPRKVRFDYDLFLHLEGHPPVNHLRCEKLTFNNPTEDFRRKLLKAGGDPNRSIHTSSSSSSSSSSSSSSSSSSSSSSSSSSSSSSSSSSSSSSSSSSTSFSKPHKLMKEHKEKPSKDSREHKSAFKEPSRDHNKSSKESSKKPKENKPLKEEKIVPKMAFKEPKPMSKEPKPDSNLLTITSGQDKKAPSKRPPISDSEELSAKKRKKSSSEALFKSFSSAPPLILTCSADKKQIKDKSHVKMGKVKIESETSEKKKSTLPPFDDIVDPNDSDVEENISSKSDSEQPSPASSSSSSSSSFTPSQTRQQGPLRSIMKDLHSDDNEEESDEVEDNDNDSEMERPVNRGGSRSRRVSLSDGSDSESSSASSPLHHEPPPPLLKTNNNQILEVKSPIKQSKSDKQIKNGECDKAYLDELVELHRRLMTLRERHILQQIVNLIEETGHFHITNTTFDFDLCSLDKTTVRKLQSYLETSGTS
# Ecoli rRNA inh = inhibitors of bacterial rRNA selective over humanized ribosomes | E. coli WT GFP vs humanized-ribosome RFP mutants, fluorescence, 24 h; active compounds read low; DMSO median 0, no signal -100 | GFP signal change (wild-type ribosome), % (concentration not given with the values) | 350,000 compounds, 1.6% hits | AID 720706;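 active means significant combined selectivity score with lowered wild-type GFP, culture density cut under 30%, mutant RFP and density less affected; inactive means any of these conditions unmet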; further: one replicate is shown; some compounds called inactive have numbers as strong as hits
# FGF22 binding = binders of recombinant human FGF22 by thermal shift. Q9HCT0. SYPRO orange fluorescence; percent of sucrose octasulfate shift, DMSO zero. calls only at 9.99 µM. 340,000 compounds, 1.5% hits. AID 651658;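 active means melting point raised past a set limit in the mean and every replicate; three in four hits are not shown here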
# Target sequence (Q9HCT0 whole entry, looked up): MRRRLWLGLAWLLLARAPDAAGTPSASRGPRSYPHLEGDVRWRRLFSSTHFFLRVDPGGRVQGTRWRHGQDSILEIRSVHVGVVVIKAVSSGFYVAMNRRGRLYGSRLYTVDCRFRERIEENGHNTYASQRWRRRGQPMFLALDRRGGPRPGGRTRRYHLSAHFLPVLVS
# Ecoli rRNA inh OD600 = recorded beside Ecoli rRNA inh, whose call it bears; OD600 change, %; measured here: OD600 growth;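 optical density of the mix in the first replicate; 0 = DMSO median and -100 = no signal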
# Ecoli rRNA inh RFP = second read-out of Ecoli rRNA inh, no call of its own (marks repeat the call); RFP signal change, %; measured here: RFP humanized mutant strains;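 first replicate; 0 = DMSO median and -100 = no signal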
# The depositor's hits bear a star; i = inactive; & = joins results of further samples. An excerpt, so the mix of outcomes need not match the whole.
AF4-AF9 inh	Ecoli rRNA inh	Ecoli rRNA inh OD600	SMILES	Ecoli rRNA inh RFP	FGF22 binding
-5.3	-3	-11	COc1ccc(-c2ccc3n(c2=O)C[C@H]2[C@H](CO)[C@@H](C(=O)N(C)C)N(CC4CCCC4)[C@@H]32)cc1	5.1	i
2.8	1	6	Cc1noc(C)c1NC(=O)NCC[C@H]1CC[C@H](NC(=O)c2ccccc2)[C@H](CO)O1	-2.7	i
-2.6	3	8	CCC(=O)N(C)C[C@H]1Oc2ncc(C#CC3(O)CCCC3)cc2C(=O)N([C@H](C)CO)C[C@H]1C	-4.5	i
-2.0	1	3	C[C@@H]1CN([C@H](C)CO)C(=O)Cc2cc(N(C)C)ccc2O[C@@H]1CN(C)C(=O)NC1CCCCC1	-0.4	i
-14	3	2	O=C(C[C@H]1CC[C@@H](NC(=O)Cc2cccnc2)[C@H](CO)O1)NCc1ccc2c(c1)OCO2	1.0	i
-2.1	1	6	Cn1cnc(S(=O)(=O)N2C[C@@H](O)COC[C@@H]3O[C@H](CC(=O)NCc4ccc(F)cc4)CC[C@H]32)c1	-4.3	i
4.4	-1	8	CN(C)c1cccc(NC(=O)c2cccc3c(-c4ccc(F)c(F)c4)coc23)c1	2.5	i
-1.3	1	-1	CCC(=O)N1[C@H](CN(CC)C(=O)c2cccc(F)c2)[C@H](c2ccccc2)[C@@H]1CO	-0.9	i
-0.9	2	10	Cc1noc(C)c1NC(=O)N(C)C[C@H]1Oc2ncc(C#CCN(C)C)cc2C(=O)N([C@@H](C)CO)C[C@H]1C	-1.5	i
0.6	3	11	COCC(=O)N(C)C[C@H]1[C@H](c2ccccc2)[C@H](CO)N1C(=O)Cc1cccnc1	-2.7	i
-1.1	4	5	O=C(c1cccc(F)c1)N1C[C@H]2[C@@H](c3ccccc31)[C@@H](CO)N2C(=O)C1CC1	-0.3	i
15	-56	-76	CC(C)CC#Cc1ccc([C@H]2[C@@H](CO)N3CCCCN(C(=O)c4ccc5c(c4)OCO5)C[C@H]23)cc1	-18	i
-0.5	-6	-6	C[C@@H]1CCCCO[C@@H](CN(C)S(=O)(=O)c2ccccc2)[C@H](C)CN([C@@H](C)CO)C(=O)c2cc(NS(C)(=O)=O)ccc2O1	-0.1	i
-0.7	-2	5	C[C@H]1CN([C@@H](C)CO)C(=O)c2cc(NS(=O)(=O)c3ccccc3)ccc2O[C@@H]1CN(C)C(=O)Nc1cccc2ccccc12	-1.3	i
1.4	-7	-8	CC(C)(C)c1nnc(NS(=O)(=O)c2ccc(F)cc2)s1	-1.6	i
1.2	-1	-4	COc1ccc(NC(=O)N(C)C[C@H]2OCc3ccccc3-c3c(n(C)c4ccccc34)C(=O)N([C@@H](C)CO)C[C@H]2C)cc1	-1.4	i
-1.1	4	12	CCOC(=O)c1c(-c2ccc(N(C)C)cc2)oc2c1C(OC)CC2 (centres undefined)	-1.9	i
-0.3	1	1	Cc1ccc(S(=O)(=O)N[C@H]2CC[C@@H](CCn3cc(C(C)C)nn3)O[C@H]2CO)cc1	-2.6	i
-0.2	0	-2	O=C(C[C@@H]1C=C[C@H](NC(=O)CN2CCOCC2)[C@@H](CO)O1)NCc1cccc(F)c1	-1.5	i
3.4	-10	-25	CN1c2ccc(-c3ccc(F)cc3)cc2[C@H]2[C@H](CCN2C(=O)c2ccncc2)[C@@H]1CO	-3.3	i
-0.8	-1	-4	CCCC(=O)Nc1ccc2c(c1)C(=O)N(C)[C@@H]1CC[C@H](CC(=O)NCCc3ccncc3)O[C@@H]1CO2	1.1	i
0.6	6	24	COc1cccc(C(=O)N2CCN(Cc3nc(-c4ccoc4)oc3C)CC2)c1	4.8	i
0.1	-27	-52	Cc1ccc(S(=O)(=O)Nc2ccc3c(c2)CC(=O)N([C@H](C)CO)C[C@@H](C)[C@H](CN(C)CC2CCCCC2)O3)cc1	28	i
0.1	1	4	COc1ccc2c3c([nH]c2c1)[C@H](CO)N(C(=O)c1ccc(F)cc1)CC31CCN(C(=O)Nc2cccc(F)c2)CC1	11	i
6.3	-3	-13	COc1ccccc1C#Cc1ccc2c(c1)O[C@H](CN(C)C)[C@@H](C)CN([C@H](C)CO)S2(=O)=O	13	i

# Overlap with the part before: four entries, then new ones.
AF4-AF9 inh	Ecoli rRNA inh	Ecoli rRNA inh OD600	SMILES	Ecoli rRNA inh RFP	FGF22 binding
0.6	6	24	COc1cccc(C(=O)N2CCN(Cc3nc(-c4ccoc4)oc3C)CC2)c1	4.8	i
0.1	-27	-52	Cc1ccc(S(=O)(=O)Nc2ccc3c(c2)CC(=O)N([C@H](C)CO)C[C@@H](C)[C@H](CN(C)CC2CCCCC2)O3)cc1	28	i
0.1	1	4	COc1ccc2c3c([nH]c2c1)[C@H](CO)N(C(=O)c1ccc(F)cc1)CC31CCN(C(=O)Nc2cccc(F)c2)CC1	11	i
6.3	-3	-13	COc1ccccc1C#Cc1ccc2c(c1)O[C@H](CN(C)C)[C@@H](C)CN([C@H](C)CO)S2(=O)=O	13	i
4.1	-4	-3	C[C@H](CO)N1C[C@H](C)[C@H](CN(C)Cc2ccc(-c3ccccc3)cc2)Oc2c(NS(=O)(=O)c3ccc(F)cc3)cccc2C1=O	-1.4	i
-0.3	4	3	CC(=O)N(C)C[C@@H]1Oc2cc(C#C[C@H](C)O)ccc2S(=O)(=O)N([C@@H](C)CO)C[C@H]1C	-2.5	i
-0.8	0	1	COc1ccccc1OCCn1nc2ccccc2c1OC	6.8	i
2.8	19	-10	COCCNc1nc(NCc2ccccc2F)c2sccc2n1	-4.4	i
-0.4	4	4	CO[C@H]1CC[C@H]2CCOc3c(C#N)cccc3C(=O)N(C)C[C@@H](OC)[C@H](C)C(=O)N(C)C[C@H]1O2	-3.5	i
-1.7	1	2	C[C@H]1CN([C@@H](C)CO)C(=O)Cc2cc(NS(=O)(=O)c3ccccc3)ccc2O[C@@H]1CN(C)Cc1ccc(C(=O)O)cc1	0.2	i
6.5	-1	-5	C[C@H](CO)N1C[C@H](C)[C@H](CN(C)Cc2ccc(Cl)c(Cl)c2)OCc2ccccc2-c2ccccc2C1=O	0.1	i
3.6	-8	-7	CC(=O)N1[C@H](CNC(=O)C2CC2)[C@H](c2ccc(-c3ccc(F)cc3)cc2)[C@@H]1CO	3.0	i
0.5	-4	-5	CC(C)CC#Cc1cnc2c(c1)C(=O)N([C@H](C)CO)C[C@@H](C)[C@H](CN(C)C(=O)CC1CC1)O2	-2.2	i
3.4	1	0	O=C1N[C@H](c2ccccc2)COCn2nncc2CC[C@H]1Cc1ccccc1	-2.3	i
1.6	-4	-10	CCCC#Cc1ccc2c(c1)O[C@@H](CN(C)C(=O)NCCC)[C@H](C)CN([C@H](C)CO)S2(=O)=O	3.7	i
-1.5	-3	-2	O=C(N[C@@H]1C=C[C@H](CC(=O)N2CCOCC2)O[C@H]1CO)c1cccc(F)c1	-1.7	i
0.6	0	3	CC=Cc1ccc2n(c1=O)C[C@@H]1[C@@H](CO)[C@H](C(=O)NCc3cc(F)cc(F)c3)[C@H]2N1S(C)(=O)=O (mixture of isomers)	1.6	i
0.3	-20	-59	CCc1nc2c(OCc3ccc(Cl)cc3)cccn2c1N(C=O)Cc1ccc(OC)cc1	15	i
0.1&-2.3	-2&-3	4&2	COc1ccc(C#Cc2cnc3c(c2)C(=O)N([C@H](C)CO)C[C@H](C)[C@@H](CN(C)C(=O)Nc2cccc(OC)c2)O3)cc1	5.0&1.9	i
-2.0	-3	-4	C[C@H](CO)N1C[C@H](C)[C@H](CN(C)CC2CC2)OCCCC[C@H](C)Oc2ccc(NC(=O)CCC(F)(F)F)cc2C1=O	-1.8	i
-5.1	-2	7	C[C@H](CO)N1C[C@H](C)[C@H](CN(C)Cc2ccc(O)cc2)OCc2ccccc2-c2ccccc2C1=O	-4.6	i
-1.2	5	10	C[C@H](CO)N1C[C@H](C)[C@H](CN(C)Cc2ccc(C(=O)O)cc2)Oc2ccc(NC(=O)Nc3ccccc3)cc2CC1=O	0.6	i
-9.1	5	14	CCCNC(=O)N(C)C[C@@H]1Oc2ncc(-c3ccc(C(=O)N(C)C)cc3)cc2C(=O)N([C@@H](C)CO)C[C@H]1C	-3.7	i
0.4	0	1	COc1ccc(-c2ccc(CN3C(CC(C)C)C(=O)N(Cc4cn(Cc5ccco5)nn4)CCS3(=O)=O)cc2)cc1OC (centres undefined)	-1.3	i
-2.1&-4.0	23	15	C[C@@H]1CCCCO[C@@H](CN(C)C(=O)Nc2ccc(C(F)(F)F)cc2)[C@@H](C)CN([C@H](C)CO)C(=O)c2cc(NS(=O)(=O)c3ccc(Cl)cc3)ccc2O1	-1.6	i
-5.3	-2	3	COc1cccc(CNC(=O)C[C@@H]2CC[C@H]3[C@@H](COc4ccc(NC(=O)c5cccs5)cc4C(=O)N3C)O2)c1	-4.2	i
2.9	1	2	COCC#Cc1ccc2c(c1)O[C@H](CN(C)Cc1cncnc1)[C@H](C)CN([C@H](C)CO)S2(=O)=O	-1.5	i
1.6	1	1	C[C@H]1CN([C@@H](C)CO)S(=O)(=O)c2ccc(-c3cccc(C#N)c3)cc2O[C@H]1CN(C)CC1CC1	-0.3	i
-2.0	0	1	C[C@@H]1CN([C@H](C)CO)C(=O)c2cc(C#CC(C)(C)O)cnc2O[C@H]1CN(C)C(=O)C1CCOCC1	-4.1	i
2.1	-2	-8	C/C=C/c1ccc([C@@H]2[C@@H](CO)N3C(=O)CN(C(=O)Nc4cccc(OC)c4)C[C@@H]23)cc1	3.4	i
-0.3	4	11	C[C@H]1CN([C@@H](C)CO)C(=O)c2cc(N(C)C)ccc2O[C@H]1CN(C)Cc1ccc(C(=O)O)cc1	-2.0	i
-6.4	5	7	CNC[C@H]1Oc2cc(-c3ccccc3OC)ccc2S(=O)(=O)N([C@H](C)CO)C[C@@H]1C	-0.9	i
3.8	-1	12	N#C[C@@H]1[C@H](c2ccccc2)[C@@H](CO)N1C(=O)Cc1ccccc1	1.9	i
-3.6	5	1	CC(C)CC#Cc1cnc2c(c1)C(=O)N([C@H](C)CO)C[C@H](C)[C@H](CN(C)C(=O)c1ccccc1)O2	-1.6	i
-0.9	-1	0	O=C(C[C@@H]1C[C@@H]2c3cc(NS(=O)(=O)c4ccc(F)cc4)ccc3O[C@@H]2[C@@H](CO)O1)NCc1ccccn1	-2.6	i
-3.4	2	3	COCC#Cc1ccc2c(c1)O[C@H](CN(C)C(=O)C1CCOCC1)[C@H](C)CN([C@@H](C)CO)S2(=O)=O	-1.5	i
-2.5	2	6	Cc1noc(C)c1S(=O)(=O)Nc1ccc2c(c1)CC(=O)N([C@@H](C)CO)C[C@H](C)[C@H](CN(C)S(=O)(=O)c1cn(C)cn1)O2	-1.5	i
-3.2	11	3	Cc1nc(C(F)(F)F)ccc1C(=O)N1CCCC(C)(C(=O)O)C1 (centres undefined)	3.8	i
-4.0	4	17	COc1cccc(NC(=O)N2C[C@H](O)COC[C@@H]3O[C@@H](CC(=O)N(C)C)CC[C@H]32)c1	-1.2	i
-2.1	-11	-12	C[C@@H]1CN([C@@H](C)CO)C(=O)c2cc(-c3ccc(C#N)cc3)cnc2O[C@H]1CN(C)C(=O)Nc1ccc(C(F)(F)F)cc1	3.3	i
-2.7	25	25	COC(=O)C1=C(C(=O)OC)C2CCCC1C1N=NN(c3ccccc3)C21 (centres undefined)	2.3	i
-4.2	3	10	C[C@@H]1CN([C@H](C)CO)C(=O)c2cc(-c3ccccc3F)cnc2O[C@H]1CN(C)C(=O)c1cnccn1	-1.3	i
0.6	3	2	O=C(Cc1ccccn1)NCC[C@@H]1CC[C@@H](NC(=O)Nc2ccc(F)cc2)[C@@H](CO)O1	1.0	i
0.5	1	8	CCCN1C[C@@H](C)[C@@H](OC)CN(C)C(=O)c2ccc(NC(=O)Nc3ccccc3F)cc2OC[C@@H]1C	0.2	i
-13	-2	-14	CC(C)C#Cc1cnc2c(c1)C(=O)N([C@H](C)CO)C[C@H](C)[C@@H](CN(C)C(=O)Nc1ccc(F)cc1)O2	0.6	i
0.9	-5	-7	O=C(NCc1ccccc1F)[C@@H]1[C@@H](CO)[C@@H]2Cn3c(cccc3=O)[C@@H]2N1CC1CCCC1	1.3	i
-1.0	5	-10	C[C@@H]1CN([C@@H](C)CO)C(=O)c2cc(C#CC3CCCCC3)cnc2O[C@@H]1CN(C)C(=O)NC1CCCC1	1.5	i
-3.5	1	4	C[C@@H](O)C#Cc1ccc([C@H]2[C@@H](CO)N3CCCCN(S(=O)(=O)Cc4ccccc4)C[C@@H]23)cc1	-0.8	i

# A portion from further up:
AF4-AF9 inh	Ecoli rRNA inh	Ecoli rRNA inh OD600	SMILES	Ecoli rRNA inh RFP	FGF22 binding
0.5	1	8	CCCN1C[C@@H](C)[C@@H](OC)CN(C)C(=O)c2ccc(NC(=O)Nc3ccccc3F)cc2OC[C@@H]1C	0.2	i
-13	-2	-14	CC(C)C#Cc1cnc2c(c1)C(=O)N([C@H](C)CO)C[C@H](C)[C@@H](CN(C)C(=O)Nc1ccc(F)cc1)O2	0.6	i
